UCH37 inh = blocks the human deubiquitinase UCH37. hit rate 0.33% among 330,000. inhibition, % (no concentration beside the values). Q9Y5K5. purified proteasome/UCH37, Ub-AMC cleavage fluorescence;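 active means mean of two replicates above 20%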;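 further: 0% = compound-free wells with enzyme and 100% = wells lacking proteasome; stock transfer was 100 nL into about 20 µL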
Target sequence (Q9Y5K5 whole entry, looked up): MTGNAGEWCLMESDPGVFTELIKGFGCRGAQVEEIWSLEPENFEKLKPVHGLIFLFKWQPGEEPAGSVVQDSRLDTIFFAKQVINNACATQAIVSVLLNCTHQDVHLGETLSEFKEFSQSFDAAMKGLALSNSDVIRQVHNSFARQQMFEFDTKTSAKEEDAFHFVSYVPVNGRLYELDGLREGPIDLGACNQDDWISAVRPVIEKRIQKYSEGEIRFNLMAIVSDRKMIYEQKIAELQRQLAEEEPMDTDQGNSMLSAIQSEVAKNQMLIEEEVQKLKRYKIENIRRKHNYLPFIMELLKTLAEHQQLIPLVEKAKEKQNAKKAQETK
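Test system – human UCH37 enzyme supplied as purified proteasome complex · Incubation – 30 min preincubation with enzyme, 25 min cleavage at room temperature · Detection – AMC fluorescence from Ub-AMC cleavage, excitation 355 nm, emission 460 nm · Benchmarks – no-proteasome wells (full inhibition) and compound-free wells (no inhibition)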
RanGTP-Imp inh = inhibitors of RanGTP-importin-beta interaction, primary screen, biochemical, FRET, CFP-Ran, YFP-importin-beta, homogeneous | hit rate 1.1% among 300,000 | inhibition, % (no concentration beside the values) | cell-free CFP-Ran/YFP-importin-beta FRET ratio;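 active means most replicates above 15%; inconclusive means exactly half above 15%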;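 further: 0% = DMSO wells and 100% = Ran loaded with GDP instead of GTP; wells of about 40 µL received 100 nL stock; the first replicate is given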
LANA-H2A inh = blocks KSHV LANA binding to histone H2A/H2B | Q9QR71 | cell-free LANA-H2A/H2B peptide, fluorescence polarization | inhibition, % (no concentration beside the values) | hit rate 0.6% among 320,000 | AID 2629; in the data active means inhibition mostly above about 10%, no sharp cut-off; inactive means mostly below about 6.7%;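 further: stock transfer was 7.5 nL into about 10 µL; 0% = median of vehicle wells and 100% = median of positive control wells; one replicate is shown; the record names a cut of 25% in any replicate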
B2AR ag = human beta-2 adrenergic receptor agonism by FAP; Am2.2-beta2AR cells, FAP receptor internalization, flow cytometry; reference of the scale not given here; response, % (test concentration not listed); hit rate 0.43% among 340,000;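 active means response above a set limit, near 3 SD of response in nonfluorescent compounds, cut at about 42% in these data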;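 further: stock transfer was 100 nL into about 11 µL; a reference agonist was the positive control; negative values mostly stem from fluorescent compounds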
Target sequence (P07550 whole entry, looked up): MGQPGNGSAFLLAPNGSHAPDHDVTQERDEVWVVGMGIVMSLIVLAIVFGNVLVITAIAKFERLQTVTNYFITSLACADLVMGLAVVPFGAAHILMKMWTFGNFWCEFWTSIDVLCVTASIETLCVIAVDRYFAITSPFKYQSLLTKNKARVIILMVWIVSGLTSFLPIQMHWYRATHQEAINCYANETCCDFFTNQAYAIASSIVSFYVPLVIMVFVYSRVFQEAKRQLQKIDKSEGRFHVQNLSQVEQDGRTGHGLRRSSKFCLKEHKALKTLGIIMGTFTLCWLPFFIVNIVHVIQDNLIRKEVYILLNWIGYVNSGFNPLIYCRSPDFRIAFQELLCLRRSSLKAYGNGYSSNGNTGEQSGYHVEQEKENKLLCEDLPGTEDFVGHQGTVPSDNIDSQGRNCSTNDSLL
Bfl-1 A1 inh = inhibitors of the anti-apoptotic protein A1, read as caspase activation; MEF A1-2A-BIM cells, Caspase-Glo 3/7 luminescence, 3 h; percent of clofoctol response, vehicle zero; caspase activation, % (no concentration beside the values); AID 2462; hit rate 0.066% among 330,000;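 active means over half of replicate activation scores above 10%, or exactly half above 10 with the replicate mean above 10; inconclusive means replicate mean below 10 yet half the replicates above 10; inactive means over half of replicates below 10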;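 further: wells of about 30 µL received 50 nL stock; many hits fall short of the cut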
Calb FLC = affects C. albicans growth with fluconazole | C. albicans CaCi-2 (fluconazole-resistant clinical isolate) + fluconazole, Alamar Blue growth, 48 h | AID 1979 | growth inhibition, % (test concentration not listed) | hit rate 0.57% among 300,000;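 active means most replicates above 75%; inconclusive means exactly half above 75%; inactive means most below 75%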;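 further: all wells also contain fluconazole at 8 µg/ml as a sub-toxic cotreatment; 0% = median of DMSO wells and 100% = median of geldanamycin control wells; wells of about 8 µL received 7.5 nL stock; the first replicate is given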
T cruzi repl = T. cruzi replication inhibition. T. cruzi beta-gal in NIH3T3, luminescence, 90 h. inhibition, % (concentration not given with the values). hit rate 1.4% among 300,000;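 active means mean inhibition across valid replicates above about 55%, limit read from the data; inconclusive means mean below that limit but half or more replicates reach it; inactive means mean below it, under half of replicates reach it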;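 further: signal also drops with host cell toxicity which is not excluded here; 0% = plate median of DMSO wells and 100% = zero luminescence signal; higher percent means less beta-gal luminescence so fewer parasites; stock transfer was 50 nL into about 50 µL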
Beta cell apopt = blocks beta cell apoptosis | INS-1E cytokine-induced death, ATP luminescence, 48 h; percent of positive-control rescue, neutral wells zero | protection from apoptosis, % (no concentration beside the values) | hit rate 0.8% among 300,000 | AID 435005;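 active means all replicates at 75% or more, or half of them and the mean; inconclusive means half reach 75% but not the mean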;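 further: 0% = cytokine-treated negative control wells and 100% = positive control rescue; higher means more ATP so stronger rescue from cytokine killing; wells of about 40 µL received 100 nL stock; the first replicate is given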
Numbers without * were called inactive; ? = inconclusive; · = no result given.

SMILES	UCH37 inh	RanGTP-Imp inh	LANA-H2A inh	B2AR ag	Bfl-1 A1 inh	Calb FLC	T cruzi repl	Beta cell apopt
O=C(c1ccccc1)C(C(=O)N1CCCCC1)n1ccccc1=O (configuration not stated)	1.8	0.8	5.3	3	-0.5	1	-6	-5
CCCC(=O)N1CCN(c2ccc(NC(=O)c3ccc(N4CCCC4)c([N+](=O)[O-])c3)cc2Cl)CC1	2.9	-0.2	1.1	3	-0.4	?	38	13
CC1CSC(N(C(=O)c2ccc(S(C)(=O)=O)cc2)c2ccc(Cl)cc2)=N1 (configuration not stated)	4.8	0.6	2.6	-3	0.4	-31	-2	-3
CC1CN(c2ccc(Cl)nn2)CC(C)O1 (configuration not stated)	-0.2	-2.0	0.8	0	0.9	0	-10	-6
CN(/C=C/C(=C\C=[N+](C)c1ccccc1)OCCCS(=O)(=O)[O-])c1ccccc1	20*	0.6	·	0	1.5	3	-1	-3
Cc1ccc(C(=O)C2CCNCC2)cc1	0.4	4.4	2.6	-4	-0.1	-14	-3	0
COc1ccc(OCC(=O)NC(=S)Nc2ccc(N3CCOCC3)c(Cl)c2)cc1	4.7	-2.0	-0.3	0	-1.0	-7	-8	·
COc1ccccc1NC(=S)Nc1ccccn1	1.1	2.2	4.3	-9	-0.2	8	-1	0
CC(C)Sc1nc(N)c2c3c(sc2n1)CN(C)CC3	-12	21*	2.4	-5	0.1	-8	12	-2
CCOC(=O)C1=C(C)NC(C)=C(C(=O)OCC)C1C(=O)OCC(=O)NCCc1ccc(S(N)(=O)=O)cc1	-36	4.1	2.6	4	1.1	-21	-6	2
Cn1nc(C(F)(F)F)cc1C(=O)Nc1ccc(-c2ccno2)cc1	-17	4.8	1.2	12	-0.3	25	-2	8
Cc1cccc(Nc2nc(-c3ccc(F)c(C)c3)cs2)n1	1.3	5.3	0.3	12	-2.4	-7	29	4
CCC1CCCCN1C(=O)Cn1nc([N+](=O)[O-])c(Cl)c1C (configuration not stated)	1.9	-3.7	0.3	2	0.1	-4	25	1
CCCOc1ccc(N2C(=O)CC(N3CCC(c4nncn4CC)CC3)C2=O)cc1 (configuration not stated)	5.4	-1.8	2.7	0	-0.2	-19	-6	1
CCOc1ccc(N(CC(=O)NC2CCCCC2)C(=O)CCC(=O)Nc2ccccn2)cc1	5.1	-2.5	1.4	-19	1.3	-8	1	-9
O=Cc1ccc(OCC(=O)N2CCOCC2)cc1	1.4	1.5	-1.8	2	0.2	39	-14	1
O=C1c2oc3ccccc3c(=O)c2C(c2cccs2)N1CCCN1CCOCC1 (configuration not stated)	0.2	4.4	-3.3	1	-1.1	?	5	2
COc1ccc(S(=O)(=O)N(C)C[C@H]2Oc3c(NS(=O)(=O)c4cn(C)cn4)cccc3C(=O)N([C@H](C)CO)C[C@@H]2C)cc1	0.6	·	5.9	-12	0.1	·	·	-4
COc1ccc(CCNC(=O)c2cc(C3CC3)on2)cc1OC	5.3	6.2	7.0	-4	-0.4	4	3	2
COc1ccc(C)cc1-n1nnnc1SCc1nc2ccccc2s1	-1.5	8.6	2.7	3	0.0	23	1	-1
Cc1cn(C(=O)c2ccccc2)c(=S)n1-c1ccc(Cl)cc1	-27	-0.2	-3.1	2	0.1	24	29	-6
O=C(Nc1cccc(-c2cn3cccnc3n2)c1)Nc1ccccc1F	-27	-3.1	-0.8	15	-1.1	8	-3	4
O=C(CCCN1C(=O)c2ccccc2C1=O)Nc1nncs1	3.1	-1.7	3.7	6	0.3	-6	-19	-4
Cc1onc(-c2ccccc2)c1C(=O)N=C(N)c1ccc(Cl)cc1	4.0	0.0	-0.7	-6	0.0	-5	-8	1
Cc1ccc(C(C)C)c(OCCCCCN2CCOCC2)c1	1.1	1.9	1.1	8	-1.6	7	9	4
O=C(CSc1nncn1-c1cccnc1)N(c1ccccc1)c1ccccc1	0.4	-1.1	0.9	-15	0.3	5	11	-2
O=C(NCCCn1ccnc1)/C(=C\c1cccnc1)NC(=O)c1ccccc1Br	1.1	4.0	1.6	1	-0.1	6	-5	-5
CNc1nc(C)c([N+](=O)[O-])c(Nc2ccc(OC)cc2)n1	8.4	-1.0	4.2	1	0.6	7	-1	0
COc1ccc(OC)c(-c2nc(C)sc2CC(=O)O)c1	-0.2	2.1	1.6	-1	0.4	-1	-4	0
C=CCNC(=S)Nc1ccc(OC)c(S(=O)(=O)N2CCOCC2)c1	3.0	-2.5	0.6	7	-0.2	-10	-12	0

Compounds shown so far that have a nitro group on carbon, in the order listed:
SMILES	UCH37 inh	RanGTP-Imp inh	LANA-H2A inh	B2AR ag	Bfl-1 A1 inh	Calb FLC	T cruzi repl	Beta cell apopt
CCCC(=O)N1CCN(c2ccc(NC(=O)c3ccc(N4CCCC4)c([N+](=O)[O-])c3)cc2Cl)CC1	2.9	-0.2	1.1	3	-0.4	?	38	13
CCC1CCCCN1C(=O)Cn1nc([N+](=O)[O-])c(Cl)c1C (configuration not stated)	1.9	-3.7	0.3	2	0.1	-4	25	1
CNc1nc(C)c([N+](=O)[O-])c(Nc2ccc(OC)cc2)n1	8.4	-1.0	4.2	1	0.6	7	-1	0

Additional records
SMILES	UCH37 inh	RanGTP-Imp inh	LANA-H2A inh	B2AR ag	Bfl-1 A1 inh	Calb FLC	T cruzi repl	Beta cell apopt
CC(C)CN(C)Cc1c(C(=O)N2CCc3ccccc3C2)nc2ccc(Cl)cn12	1.3	1.3	17*	-3	1.1	-6	-2	-2
O=C(O)c1cc([N+](=O)[O-])cc2c1nnn2O	15	0.2	4.4	8	0.3	1	-7	8
Cc1cnn2c(C3CC3)ccnc12	3.6	-1.5	1.1	-2	-0.1	0	-4	-1
Cc1nc(C(F)(F)F)c(C(=O)NC(=O)Nc2ccc(OC(F)(F)F)cc2)s1	-0.7	-1.2	1.1	1	-0.6	4	1	·
COC(=O)c1ccc(NC(=O)C23CCC(C)(C(=O)O2)C3(C)C)cc1 (configuration not stated)	-0.8	-2.4	-0.7	1	-0.8	0	1	1
O=C(OCc1cccs1)c1ccccc1NS(=O)(=O)c1ccc2c(c1)OCCO2	-2.1	3.0	-2.7	-3	-0.7	5	17	-2
Cc1ccc(S(=O)(=O)N2CCC(C(=O)Nc3ccc(S(=O)(=O)N4CCCC4)cc3)CC2)cc1	5.0	0.6	1.0	1	-0.9	-7	26	2
CCc1c(C)nc2cc(-c3ccc(OC)c(OC)c3)nn2c1N1CCC(C)CC1	-7.1	2.4	-1.7	-5	0.0	?	25	6
O=C(NCCn1cc(SCc2ccccc2)c2ccccc21)c1ccccc1F	1.7	-1.2	-1.8	9	-1.0	1	30	5
CCc1nc(SCC(=O)N2CCCC2)c2ccccc2n1	4.2	5.4	-4.4	-1	0.3	17	19	-10
Cc1noc(NS(=O)(=O)c2ccc(NC(=O)C(CC(C)C)N3C(=O)c4ccccc4C3=O)cc2)c1C (configuration not stated)	1.9	1.4	-0.2	4	0.3	3	6	-5
CCNS(=O)(=O)c1ccc(NS(=O)(=O)c2cc(C)ccc2C)cc1	-0.1	-2.7	-1.7	3	0.5	0	·	-4
O=C(O)Cc1ccc2c(c1)N(S(=O)(=O)c1cccc(C(F)(F)F)c1)CC(C(=O)O)O2 (configuration not stated)	3.3	4.6	-2.4	-4	-1.4	-8	-9	-1
C=CCn1c(Oc2ccccc2F)nc2c1c(=O)n(C)c(=O)n2C	1.6	0.2	1.1	-5	0.1	-2	5	-10
COc1ccc(-c2cc(C(=O)Nc3c(C)n(C)n(-c4ccccc4)c3=O)c3ccccc3n2)cc1	-20	6.2	7.2	23	-0.8	3	0	2
CCC1Oc2ccc(C)cc2N(CC(=O)N(Cc2ccncc2)Cc2ccco2)C1=O (configuration not stated)	4.5	-1.2	-6.0	4	-0.6	-3	19	2
NNC(=O)C(Cc1ccc(O)cc1)N1Cc2ccccc2C1=O (configuration not stated)	2.8	-2.9	-1.8	-2	0.6	5	-3	-3
COc1ccc(NC(=S)N/N=C/c2cccn2Cc2ccc(F)cc2Cl)cc1	·	·	0.2	-5	0.5	-10	·	4
CC(=O)c1cccc(NC(=O)C(C)OC(=O)c2cccc(S(=O)(=O)N3CCN(C)CC3)c2)c1 (configuration not stated)	-1.9	·	1.1	18	0.2	·	·	-8
CSc1ccccc1NC(=O)CN(c1ccccc1Br)S(C)(=O)=O	2.6	-3.3	3.1	1	-1.8	7	4	·
Cc1nn(C(C)C(=O)N2CCc3ccccc32)c(C)c1[N+](=O)[O-] (configuration not stated)	3.8	2.7	0.5	-2	0.0	17	-6	-7
COc1ccc(CCNC(C(=O)Nc2cc(C)cc(C)c2)c2ccccc2)cc1 (configuration not stated)	0.2	4.3	-0.1	3	0.7	-24	38	-1
NS(=O)(=O)c1ccc(NC(=S)NC(=O)/C=C/c2cccs2)cc1	4.9	6.1	2.3	-6	1.0	17	-8	-9
COc1ccccc1NC(=O)C(C)Sc1nnc2ccccn12 (configuration not stated)	-6.4	·	1.0	-5	1.3	·	·	-4
CCCOc1ccccc1N/C(=N/c1nc(C)cc(C)n1)NC(=O)Nc1ccc(Cl)cc1	-2.5	-1.3	1.0	-9	0.1	5	49	7
CCOC(=O)c1snc(-c2ccc(F)cc2)c1N	-3.0	8.0	0.6	10	-0.8	-6	-13	3
FC(F)(F)c1nc2ccccc2n1CCNc1nc(CN2CCCCC2)cs1	0.1	-2.8	11	2	-0.3	-16	-6	-11
CN1CCN(S(=O)(=O)c2cccc(C(=O)NCc3ccccc3Cl)c2)CC1	0.3	-3.6	-7.9	2	0.7	8	-8	0
O=S(=O)(c1cccc(-c2csc(-c3cccnc3)n2)c1)N1CCOCC1	1.0	?	-0.5	-12	0.0	-9	1	-8
CCOc1ccc(NC(=O)CSc2nc3[nH]ncc3c(=O)[nH]2)cc1	-0.2	1.7	3.8	2	-0.1	1	-3	·
COc1cc(S(=O)(=O)N2CCN(Cc3cccs3)CC2)ccc1NC(C)=O	5.0	·	0.3	-2	-0.3	·	·	0
Cc1cc(OCC(=O)NC(Cc2c[nH]c3ccc(O)cc23)C(=O)O)c2c(C)c(C)c(=O)oc2c1 (configuration not stated)	-48	0.4	4.5	-5	1.1	-4	13	-5
COc1ccc(NC(=O)CN(C)C(=O)c2cccc(S(=O)(=O)N3CCCc4ccccc43)c2)cc1	2.8	?	5.0	4	0.7	5	5	3
CCCCn1c(-c2csc(CCC)c2)n[nH]c1=S	-2.9	3.2	-1.8	-2	0.0	-5	-2	-5
Cc1cc2cc(C)c3nnc(SCC(=O)Nc4ccc(S(=O)(=O)N5CCCCC5C)cc4)n3c2cc1C (configuration not stated)	3.6	6.3	2.1	-15	0.3	5	5	-4
CC(C)CN(C(=O)c1ccc2c(c1)OCCO2)c1c(N)n(Cc2ccccc2)c(=O)[nH]c1=O	-2.2	-1.4	4.6	66*	-0.3	0	-16	·
CCC(O)C1CCN(Cc2cn(-c3ccc(OC)cc3)nc2-c2cccc(F)c2)CC1 (configuration not stated)	3.2	4.2	4.4	8	-0.2	1	10	-7
CN1CCCC(OC(=O)c2ccc3c(c2)OCCO3)C1 (configuration not stated)	-2.9	2.6	-1.0	0	·	·	0	·
COc1ccc(OC2CCN(S(=O)(=O)c3ccccc3)CC2)cc1	3.5	5.3	-1.9	7	-0.8	24	-7	1

High-throughput results as filed in PubChem.
